# Hsc70: Hsc70 inhibitors, probe displacement, primary screen, biochemical, fluorescence polarization (AID 568); 83,000 tested, under 10 active; Hsc70 fluorescence polarization, probe displacement; higher % means a stronger effect; strong numbers were not always called active; one-dose displacement, % at 20 µM; IC50 in µM for titrated hits; Heat shock cognate 71 kDa protein (Homo sapiens);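 active means displacement above 50% without optical interference and an IC50 on retest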;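 further: ATPase domain with a fluorescein-tagged ATP probe; 0% = vehicle and 100% = excess ADP; read after one hour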
# WNV NS2B-NS3 inh: inhibitors of WNV NS2B-NS3 protease, primary screen, biochemical, fluorogenic substrate; fluorogenic substrate Ex360/Em465; hits give low values; z-score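 (tested at a level between 10 and 100 µM)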; AID 577, 2007; actives 0.18% (n = 65,000);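 active means z-score at -3 or under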;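 further: score is relative to mean and spread of the compound wells of a plate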
# Target sequence (P06935 1371-1501 limits assumed): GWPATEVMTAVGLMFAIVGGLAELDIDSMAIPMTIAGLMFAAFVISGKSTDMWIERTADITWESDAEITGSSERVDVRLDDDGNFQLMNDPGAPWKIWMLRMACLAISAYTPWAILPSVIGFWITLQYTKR
# Target sequence (P06935 1502-1679 limits assumed): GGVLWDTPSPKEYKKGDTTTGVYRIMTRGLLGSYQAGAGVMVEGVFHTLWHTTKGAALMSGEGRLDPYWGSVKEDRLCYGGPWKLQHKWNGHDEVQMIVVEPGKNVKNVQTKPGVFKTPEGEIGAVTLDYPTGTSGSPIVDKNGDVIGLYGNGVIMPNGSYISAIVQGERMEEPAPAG
# MT1-MMP promoter: inhibitors of MT1-MMP promoter transcription, cell-based, luciferase reporter, luminescence (AID 618); calls from a first round at 10 µM; hits with a dose series show EC50 in µM; MT1-MMP promoter luciferase reporter cells, luminescence; actives 0.62% (n = 87,000);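 active means over half of the reporter light lost at 10 µM or EC50 under 50 µM; inactive means the rest and hits that failed the dose series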;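 further: actives suppress MT1-MMP promoter-driven transcription so potencies describe inhibitors; HT1080 fibrosarcoma cells; overnight exposure; toxic or luciferase-blocking compounds were not removed from the actives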
# * = called active by the depositor; i = inactive; . = not tested or not shown; & = joins results of further samples. This is a subset; count on the stated rates, not on these rows.
SMILES,Hsc70,WNV NS2B-NS3 inh,MT1-MMP promoter
Cc1ccc(CNC(=O)C2CNc3cc(C)ccc3O2)cc1 (stereo unspecified),-3.0%,-1.2,i
CCOCc1cnc(C)nc1NCC(=O)c1c(C)[nH]c2ccccc12,2.3%,.,i
COc1ccc(S(=O)(=O)n2nc(OC(=O)c3cccs3)cc2N)cc1,-6.0%,-5.6*,i
CCOCCCNC(=O)c1c(C)[nH]c(C(=O)OCC)c1C,-2.3%,-0.49,i
COc1ccc(NC(=O)C2CCC(=O)N2)cc1 (stereo unspecified),-4.5%,-0.29,i
CCC(C)(C)n1nnnc1C(c1ccc2ncccc2c1)N1CCCC(C)C1 (stereo unspecified),3.6%,.,i
O=C(NCCCn1ccnc1)Nc1ccc(Cl)c(Cl)c1,-1.4%,0.68,i
COC(=O)c1ccc(CSc2nc3ccccc3c(=O)n2-c2ccc(OC)c(OC)c2)o1,-0.2%,0.13,i
c1cc2c(cc1C1CCCN1)OCCCO2 (stereo unspecified),7.7%,0.15,i
COc1ccc(N(CC(=O)NC2CCCCCC2)S(=O)(=O)c2c(C)nn(C)c2C)cc1,-8.0%,1.4,i
CC1CCN(S(=O)(=O)c2ccc3ccccc3c2)CC1,4.0%,.,i
CC1CCN(C(=O)CN2C(=O)c3ccccc3S2(=O)=O)CC1,0.7%,0.31,i
COc1ccc(S(=O)(=O)N2CCC(C(=O)N3CCc4ccccc4C3)CC2)cc1Cl,-1.9%,.,i
N#Cc1ccc(OCCN2C(=O)NC3(CCSC3)C2=O)cc1 (stereo unspecified),-5.8%,-0.4,i
O=C1C2C3c4ccccc4C(c4ccccc43)C2c2nc3ccccc3n21 (stereo unspecified),3.3%,.,i
Brc1ccc2ncnc(Nc3ccc(N4CCOCC4)cc3)c2c1,-3.7%,0.78,i
CCN(CC)S(=O)(=O)c1cccc(C(=O)N[C@H](C(=O)OCC(=O)Nc2ccccc2)C(C)C)c1,6.2%,.,i
CCCn1c(SCc2ccccn2)nc2c1c(=O)n(C)c(=O)n2C,-5.1%,-1.9,i
COc1cc(-c2noc(-c3ccco3)n2)cc(OC)c1OC,-4.9%,0.99,i
O=C(O)C1Cc2ccccc2CN1C(=O)c1ccccc1Cl (stereo unspecified),-3.2%,.,i
COc1ccc(C(=O)N2CCN(C(=O)c3ccco3)CC2)cc1,-7.0%,-0.48,i
O=C1C(C=NCc2ccncc2)=C(O)c2ccccc21,8.3%,.,i
COc1ccccc1-n1cnc2cc(NS(=O)(=O)c3ccc(Br)cc3)ccc21,-0.9%,.,i
CCn1c(COc2ccc(OC)cc2)nc2ccccc21,2.7%,.,i
O=C(CNS(=O)(=O)c1cccc2nonc12)NCc1ccc(F)cc1,2.8%,0.48,i

# The listing continues.
SMILES,Hsc70,WNV NS2B-NS3 inh,MT1-MMP promoter
COC(=O)C1CCN(C(=O)c2sc3nc(-c4ccc(F)cc4)cn3c2C)CC1,5.2%,-0.23,i
CCOc1ccc(-n2cnnn2)cc1S(=O)(=O)NCCc1ccc(OC)c(OC)c1,3.0%,0.52,i
COc1cc(CCC(=O)N2CCN(c3ccc(N4CCOCC4)nn3)CC2)cc(OC)c1OC,-7.7%,3.6,i
Cc1nc2ccccc2c2oc(C(=O)NCCCN3CCC(C)CC3)cc12,4.2%,2.4,i
Cc1ccc(Oc2ccc(-c3nc(N)nc(N)n3)cc2)cc1C,-5.1%,.,i
Cc1onc(-c2ccccc2)c1C(=O)Nc1nnc(N(C)Cc2ccccc2)s1,2.6%,0.03,i
Nc1nc(SCC(=O)NCCC(c2ccccc2)c2ccccc2)n[nH]1,-5.0%,.,i
CC(C)(C)Nc1nc(OCC(F)(F)F)nc(OCC(F)(F)F)n1,4.4%,0.01,i
COC(=O)C(C)Sc1nnc(-c2ccncc2)o1 (stereo unspecified),2.3%,-0.93,i
CCOC(=O)c1c(NC(=O)CSc2nnc(Cc3ccccc3)o2)sc(C)c1C,0.2%,.,i
Cn1c(=O)n(C)c2cc(NS(=O)(=O)c3ccc4c(c3)CCCC4)ccc21,5.1%,0.97,i
Cc1ccc(-c2nnc(CSc3nc4cc5c(cc4cc3C)OCO5)o2)cc1,-5.2%,1.7,i
O=S(=O)(c1ccc(S(=O)(=O)N2CCN3CCCC3C2)cc1)N1CCCC1 (stereo unspecified),5.2%,-0.92,i
Cc1ccc(-n2c(SCC(=O)NCc3ccc4c(c3)OCO4)nnc2-c2cccnc2)c(C)c1,2.6%,.,i
O=C1C2C3C=CC(C3)C2C(=O)N1c1cccc(N2C(=O)C3C4C=CC(C4)C3C2=O)n1 (stereo unspecified),4.2%,0.1,i
O=C(COc1ccccc1O)N1CCN(C(=O)c2ccco2)CC1,-3.4%,-0.84,i
Cc1ccc(C(C(=O)NC(C)(C)C)N(C(=O)c2csnn2)c2ccccc2F)o1 (stereo unspecified),-4.2%,-0.9,i
COc1cc(NC(=O)c2ccco2)c(OC)cc1NC(=O)Nc1ccccc1Cl,5.0%,-0.41,i
COC(=O)c1ccc2c(c1)N(Cc1cc(C)ccc1C)C(=O)c1ccccc1S2=O (stereo unspecified),1.6%,-0.46,i
COc1ccc(C(=O)Nc2ccc(NC(=O)c3ccco3)c(Cl)c2)cc1OC,2.6%,.,i
O=C(Nc1ccc(Cl)c(Cl)c1)OCc1cnc(Cl)s1,2.1%,.,i
O=C1OCCC1Sc1nc2cc(Cl)ccc2n1Cc1ccccc1 (stereo unspecified),-0.2%,.,i
Cn1c(SC/C=C/c2ccccc2)nnc1-c1ccco1,2.2%,0.38,i
O=S(=O)(Nc1cccnc1)c1cccc(C(F)(F)F)c1,-5.3%,0.08,i
CCCOc1ccc(-c2nnc(-c3ccncc3)o2)cc1,3.1%,1.2,i

# Record cards, as listed above:
# Listed for CCOC(=O)c1c(NC(=O)CSc2nnc(Cc3ccccc3)o2)sc(C)c1C = Hsc70: 0.2%; WNV NS2B-NS3 inh: .; MT1-MMP promoter: i
# Listed for CC(C)(C)Nc1nc(OCC(F)(F)F)nc(OCC(F)(F)F)n1 = Hsc70: 4.4%; WNV NS2B-NS3 inh: 0.01; MT1-MMP promoter: i

# Entries above that contain a CF3 group:
SMILES,Hsc70,WNV NS2B-NS3 inh,MT1-MMP promoter
CC(C)(C)Nc1nc(OCC(F)(F)F)nc(OCC(F)(F)F)n1,4.4%,0.01,i
O=S(=O)(Nc1cccnc1)c1cccc(C(F)(F)F)c1,-5.3%,0.08,i

# The listing continues.
Molecule	Hsc70	WNV NS2B-NS3 inh	MT1-MMP promoter
CCN(CC)CP(=O)(c1ccccc1)c1ccccc1	-3.2%	-1.4	i
O=C(NCCCN1CCOCC1)c1cc(-c2ccc(F)cc2)on1	-0.4%	0.3	i
Cc1cc(C)cc(-n2ccnc2SCC(=O)Nc2ccc3c(c2)OCCO3)c1	0.2%	-0.3	i
CCc1ccc(C(=O)c2ccccc2C(=O)O)s1	-0.5%	.	i
CCOC(=O)CCCCC(=O)c1[nH]c(=O)[nH]c1CN1CCOCC1	4.2%	-1.3	i
Cc1cc(NC(=O)CSc2nnc(Cn3c(=O)sc4ccccc43)n2-c2ccccc2C)no1	3.2%	1.4	i
O=C(NC1CCCCC1)N1CCC(n2c(=O)[nH]c3ccccc32)CC1	0.5%	-0.53	i
CCOc1ccc(-c2nnc3ccc(SCc4ccc(C(=O)OC)o4)nn23)cc1	-2.9%	0.9	i
CCOCc1nnc(NC(C)=O)s1	5.5%	.	i
COCC(C)NS(=O)(=O)c1ccc(NC(=O)C(Cc2ccccc2)NC(N)=O)cc1 (stereo unspecified)	7.2%	-0.75	i
COc1ccc(OC)c(/C=c2\sc3nc(-c4cccs4)nn3c2=O)c1	-8.9%	-1.5	i
COc1ccc(CCNC(=O)CCN2C(=O)COc3ccc(C)cc32)cc1OC	-2.8%	0.2	i
O=C1CC(N2CCN(c3ccc(F)cc3)CC2)C(=O)N1Cc1cccs1 (stereo unspecified)	-2.8%	0.15	i
CCc1ccccc1N1CC23C=CC(O2)C(C(=O)OCC(C)C)C3C1=O (stereo unspecified)	5.4%	-0.98	i
c1ccc(Cn2c(CSc3nnnn3-c3ccccc3)nc3ccccc32)cc1	-1.9%	-0.86	i
CCc1ccc(NC2CC(=O)N(c3ccc(OC)cc3OC)C2=O)cc1 (stereo unspecified)	-1.2%	-0.09	i
CC(=O)c1sc(NC(=O)C(C)C)nc1C	0.8%	.	i
Cc1ccc(NC2OC(CO)C(O)C(O)C2O)cc1 (stereo unspecified)	-0.3%	.	i
O=C(O)Cc1ccc(-c2ccccc2-c2ccccc2)cc1	-3.2%	.	i
O=C(NCc1ccco1)c1cccn2c(=O)c3cc(Br)ccc3nc12	-0.1%	-0.48	i
CCC(=O)N1c2ccc(S(=O)(=O)CCC(=O)NC3CCCC3)cc2CC1C (stereo unspecified)	0.9%	0.56	i
O=C(O)C(Cc1ccccc1)NS(=O)(=O)c1ccc2c(c1)OCCO2 (stereo unspecified)	-1.1%	.	i
c1ccc(OCCSc2nnnn2C2CCCCC2)cc1	-2.6%	0.76	i
Clc1cnc(N/N=C/c2cccs2)c(Cl)c1	4.4%	.	i
C[C@]12CCC(=O)C=C1CC[C@@H]1[C@@H]2[C@@H](O)C[C@@]2(C)[C@H]1CC[C@]2(O)C(=O)COC(=O)CCC(=O)O	5.8%&6.8%	-0.02&0.07	i
Cc1ccc(/C=c2\sc3n(c2=O)CN(c2ccc(Br)cc2)CN=3)o1	-5.9%	0.27	i
C=C(C)CSc1nc2c(c(=O)[nH]c(=O)n2C)n1Cc1ccccc1	3.3%	-0.9	i
COc1ccccc1NC(=O)C1CCCN(S(=O)(=O)c2cnc[nH]2)C1 (stereo unspecified)	-0.9%	-0.78	i
CCCCn1c(SCC(=O)OC)nc2c1c(=O)n(C)c(=O)n2C	0.5%	-0.02	i
CC1=C(C(=O)N2CCOCC2)C(c2cccs2)NC(=O)N1 (stereo unspecified)	1.5%	-0.65	i

# Going on with the list:
Molecule	Hsc70	WNV NS2B-NS3 inh	MT1-MMP promoter
Cc1ccccc1NC(=O)c1ccc(NC(=O)c2ccco2)cc1	2.6%	-0.57	i
N#C/C(=C\c1ccc(N2CCOCC2)o1)c1nc2ccccc2[nH]1	-200%	.	4.3µM*
Cc1cc(/C=N/NC(=O)CC2(C)OCCO2)c(C)n1-c1ccc(Cl)c(Cl)c1	2.6%	.	i
COc1c(F)c(F)c(C(=O)O)c(Nc2ccccc2C)c1F	-1.3%	.	i
O=C(CSc1ncn(-c2ccccc2)n1)Nc1ccc2c(c1)OCCO2	1.3%	-2.4	i
COC(=O)c1ccc(OCC(O)CN(CC(C)C)CC(C)C)cc1 (stereo unspecified)	1.2%	-0.13	i
CCn1nnc(NC(=O)c2cccnc2)n1	-4.2%	1.4	i
O=C(NCCc1ccc(S(=O)(=O)N2CCCC2)cc1)c1cccs1	9.7%	1.4	i
CCCCC(c1nnnn1C1CCCC1)N1CCN(C2CCCC2)CC1 (stereo unspecified)	2.6%	0.4	i
Cc1ccc(-c2n[nH]c(=S)n2/N=C/C=C/c2ccccc2[N+](=O)[O-])cc1	-0.4%	.	i
CCOc1ccc(Nc2oc(Cc3ccccc3)nc2C#N)cc1	1.7%	-0.27	i
CCN(CC)CCN(CC)Cc1ccccc1Br	-2.8%	0.72	i
C=CCNC(=O)CCCCC(=O)NCC=C	3.1%	0.19	i
COc1ccc(NC(=O)CN2CCN(CC(=O)Nc3ccccc3F)CC2)c(OC)c1	-4.8%	1.2	i
Cn1c(CNC(=O)c2cccs2)nnc1SCC(=O)Nc1ccc(Cl)cc1	1.1%	.	i
O=C(O)CCC(=O)Nc1ccc(S(=O)(=O)N2CCCC2)cc1	-0.9%	-1.5	i
CC1(C)CC(=O)C(C=NCCC2=CCCCC2)=C(O)C1	-2.2%	0.43	i
CCC(C)(C)n1nnnc1CN(Cc1cc2cc(OC)ccc2[nH]c1=O)C1CCCC1	-3.9%	-0.66	i
CNC(=O)NC(=O)CSc1nc2cc(C(=O)OC)ccc2c(=O)n1-c1ccccc1	-1.4%	-0.49	i
Cc1cc(C)nc(Nc2n[nH]c(COc3cccc4ccccc34)n2)n1	2.2%	.	i
CCOc1ccc2[nH]c(=O)c(CN(CCO)C(=O)c3ccccc3F)cc2c1	-6.0%	-0.53	i
Cc1ccc(CNCc2cc3c(C(C)(C)C)nn(-c4ccccc4)c3[nH]c2=O)cc1	0.4%	.	i
COCCNC(=O)COc1cccc(Oc2ccccc2)c1	-0.7%	-0.36	i
CC(C)Cc1nc2oc3c(NCC4CCCO4)ncnc3c2c2c1CCC2 (stereo unspecified)	-2.7%	-0.2	i
Cc1nnc(SCc2nc3ccccc3nc2C)s1	3.1%	.	i
CCOc1ccc(N=C(NC#N)SCC)cc1	3.4%	.	i
CCC1(C)Cc2c(sc3nc4n(c(=O)c23)CCS4)CO1 (stereo unspecified)	1.5%	-0.31	i
Cc1cc(C)c2c(=O)n(CC(=O)N3CCC(N4CCCCC4)CC3)sc2n1	3.5%	-0.75	i
